Rango-impB inh = qHTS Assay for Inhibitors of Rango (Ran-regulated importin-beta cargo) - Importin beta complex formation; Rango CFP/YFP FRET sensor + importin beta, 45 min; Potency, µM (titrated, usually from 92.2 µM), inactives show top-dose inhibition of complex formation; 340,000 compounds, 0.031% hits; AID 540263, 2011; active = rising FRET ratio curve, often small or poorly fitted; inconclusive = mostly compound fluorescence or quenching in the first reads; inactive = flat curves in all reads;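 further: potency means the concentration at half of the fitted maximal effect; 0% = DMSO wells and 100% = buffer wells lacking importin beta; nearly all actives have a fitted effect of over 15% in size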
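Inhibition scored from the CFP 486 nm/YFP 530 nm FRET ratio 45 min after adding 0.125 microM importin beta to 50 nM Rango biosensor preincubated 5 min with compound (room temperature, PBS with DTT, Tween-20, BSA). No-importin wells as positive control.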
GLA inh pH 4.5 = qHTS Assay for Inhibitors of Human alpha-Galactosidase at pH 4.5; Alpha-galactosidase A (Homo sapiens), P06280; AID 1467, 2008; activity change, negative = inhibition, % at 105 µM; purified enzyme, 4-MU-alpha-Gal fluorescence, pH 4.5; 230,000 tested, under 10 active; inconclusive = small, poorly fitted or top-dose-only inhibition, or a rising curve; inactive = flat fitted curve, though single readings scatter; no compound was filed as active;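 further: 0% = full activity with enzyme and -100% = basal without enzyme; dose as in the result columns while the protocol names 77 µM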
Target sequence (P06280 whole entry, looked up): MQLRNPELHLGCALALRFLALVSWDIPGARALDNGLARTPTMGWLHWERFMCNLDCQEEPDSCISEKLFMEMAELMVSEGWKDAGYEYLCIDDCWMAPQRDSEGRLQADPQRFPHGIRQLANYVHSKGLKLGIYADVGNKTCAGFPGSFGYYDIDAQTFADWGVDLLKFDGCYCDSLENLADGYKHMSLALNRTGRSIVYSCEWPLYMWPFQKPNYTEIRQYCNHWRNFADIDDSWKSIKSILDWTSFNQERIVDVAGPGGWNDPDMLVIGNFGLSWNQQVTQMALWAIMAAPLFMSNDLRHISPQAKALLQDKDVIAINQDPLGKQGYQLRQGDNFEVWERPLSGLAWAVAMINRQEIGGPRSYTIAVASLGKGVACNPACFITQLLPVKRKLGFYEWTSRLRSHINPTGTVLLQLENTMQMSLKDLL
miR-21 reporter = qHTS Assay for Modulators of miRNAs and/orActivators of miR-21; HeLa miR-21 FLuc reporter, luciferase, 48 h; Potency, µM (titrated, usually from 38.3 µM), for inactives: at the highest dose reporter change, positive = more light; 340,000 tested, under 10 active; active = well fitted rising curve with a large enough effect; inconclusive = small, poorly fitted or top-dose-only effect; inactive = no such curve, though single readings can be large or run the other way;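 further: % of control where 0% means no effect; miR-21 action dims this reporter so a rising signal means less miR-21 action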
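HeLa cells endogenously expressing miR-21, stably carrying CMV-driven firefly luciferase with a downstream miR-21 binding site, 2000 cells/well. Titrations up to approximately 40 uM, 48 hours; luciferase luminescence read.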
Rango dissoc inh = qHTS Assay for Inhibitors of RanGTP induced Rango (Ran-regulated importin-beta cargo) - Importin beta complex dissociation | Snurportin-1 (Homo sapiens) + GTP-binding nuclear protein Ran (Homo sapiens) + Importin … | Biochemical FRET Rango-importin beta, RanGTP-induced dissociation | Potency, µM (doses to about 46.1 µM), for the others: at the top dose activity change, negative = inhibition | 340,000 compounds, 0.071% hits | AID 540253, 2011; active means falling FRET ratio curve, often poorly fitted, with flat reads before Ran was added; inconclusive means other falling curves, or compound fluorescence or quenching; inactive means flat or rising ratio curve;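 further: potency means the concentration at half of the fitted maximal effect; % of control where 0% means no effect; nearly all actives have a fitted effect of over 45% in size; -100% = wells without RanGTP and RCC1; the record marks most hits as doubtful in a second field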
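Rango FRET biosensor (snurportin-1 IBB flanked by N-terminal EYFP and C-terminal CFP10) at 0.1 uM, with 0.25 uM importin beta in PBS, 1mM DTT, 0.02% Tween-20, 0.1% BSA. 0.6 uM Ran, 2mM GTP and 0.2 uM RCC1 were then added for 45 min at room temperature. Inhibition read as loss of FRET rise.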
Active calls of the source: *; ? = inconclusive; . = no result given; & = joins results of further samples. Not all compounds are listed. The share of hits here may be higher or lower than overall.

no.	SMILES	Rango-impB inh	GLA inh pH 4.5	miR-21 reporter	Rango dissoc inh
1	CC(=O)Nc1cccc(OCc2cccc([N+](=O)[O-])c2)c1	1.2%	.	.	4.1%
2	CC(C)CNC(=O)c1ccccc1NC(=O)CCSc1ccccc1	-1.4%	-13.7	-6.2%	5.9%
3	COC(=O)C1=C(N)Oc2cc(C)[nH]c(=O)c2C1c1ccccc1OC (stereo not drawn)	1.5%	-22.3	7.5%	22.5%
4	O=S(=O)(Nc1ccc(F)cc1)N1CCCCCC1	0.0%	-3.6	-1.3%	-3.4%
5	CC(=O)Nc1ccc(S(=O)(=O)NCCNc2ccccc2[N+](=O)[O-])cc1	-1.8%	-1.5	-6.0%	0.8%
6	COc1cc2cc(C)nc(Cc3cccc4ccccc34)c2cc1OC	-1.0%	.	-0.1%	-18.6%
7	Cc1ccc(NC(=S)NCCN(C2CCCCC2)C2CCCC2)cc1C	-0.1%	-10.6	10.2%	0.3%
8	CCOc1ccc2c(=O)c(Oc3ccccc3OCC)coc2c1	-0.2%	-3.6	-16.2%	2.8%
9	NS(=O)(=O)c1ccc(N/N=C/c2cn(-c3ccccc3)nc2-c2cccs2)cc1	-2.5%	-6.5	-25.2%	-12.5%
10	COc1ccccc1NC(=O)CCN1C(=O)C2CC=C(Cl)CC2C1=O (stereo not drawn)	-3.3%	2.9	-0.6%	-3.5%
11	O=C1CN(S(=O)(=O)c2cc(Cl)ccc2Cl)c2ccccc2N1	3.2%	.	1.4%	34.7%
12	Cc1noc(C)c1COc1ccc(C(=O)NCc2cccs2)cc1	2.2%	.	.	8.1%
13	O=C(O)c1ccc(N=C2SCC(=O)N2Cc2ccccc2)cc1	-0.7%	1.0	-7.2%	-19.0%
14	CC1CCCC(NC(=O)COC(=O)CSc2ccc3ccccc3c2)C1C (stereo not drawn)	1.2%	-4.6	-1.7%	-11.5%
15	O=C1C2CC=CCC2C(=O)N1CNc1ccccc1 (stereo not drawn)	0.8%	-4.9	-3.9%	-3.0%
16	CN(Cc1nc(-c2cccs2)no1)CC1(N2CCOCC2)CCCCC1	-0.1%	-6.6	-4.1%	-9.3%
17	O=C(CCc1nc2ccccc2c(=O)[nH]1)OCc1ccc(-c2ccccc2)cc1	-3.6%	-12.8	-2.7%	-9.0%
18	CCN(CC)CCN1C(=O)C(=O)/C(=C(/O)c2ccc(OC)cc2)C1c1ccco1 (stereo not drawn)	?	-5.2	-17.0%	-2.0%
19	O=C(O)CC1=C(O)C(=O)N(c2ccccc2)C1c1ccccc1 (stereo not drawn)	-0.8%	-8.3	-10.3%	1.1%
20	CCOc1ccc(OCC)c(NC(=O)CN(C)S(=O)(=O)c2cccc3nsnc23)c1	0.1%	-1.6	14.8%	-17.1%
21	COC(=O)CC1=C(C)C(=O)CC2C(C)(C)CCCC12C (stereo not drawn)	2.8%	4.0	-3.9%	-11.7%
22	CCOC(=O)c1c(C)n(-c2ccc(F)cc2)c2ccc(O)cc12	1.0%	.	4.1%	7.4%
23	CN1CCN(NC(=O)c2ccc(Cl)s2)CC1	0.9%	-5.4	1.0%	1.8%
24	CC(C)Cc1nnc(NC(=O)c2cccc(S(=O)(=O)N3CCOCC3)c2)s1	2.5%	.	.	-0.3%
25	Cc1ccc(-n2c(SCC(=O)Nc3ccc(C(=O)O)cc3)nnc2-c2ccncc2)cc1	-0.9%	-7.3	3.6%	-5.6%
26	NC1=NC(=O)/C(=C/c2ccc(Cl)cc2Cl)S1	2.6%	.	-2.8%	19.4%
27	O=C(COc1cccc(Cl)c1)Nc1ccc2c(c1)CCC2	-0.4%	1.5	-46.5%	1.5%
28	COC(=O)c1ccccc1NC(NC(=O)c1ccco1)C(=O)c1ccccc1 (stereo not drawn)	?	6.9	-11.7%	12.8%
29	O=C(Nc1ccc2c(c1)OCO2)c1ccc(Br)s1	6.0%	-3.0	-39.5%	6.2%
30	CCc1noc(C)c1C(=O)OCC(=O)NC(C)c1ccccc1 (stereo not drawn)	-0.4%	.	.	13.7%
31	CC(=O)N1CCCc2cc(S(=O)(=O)Nc3ccccc3C)ccc21	?	.	7.6%	1.0%
32	COc1ccccc1CNc1ncccn1	-3.8%	.	-0.7%	-1.5%
33	COc1ccc(C2(NC(C)=O)CCN(C(=O)CCC(=O)O)CC2)cc1	2.9%	10.9	-0.8%	11.6%
34	COc1ccc(N(C(C)=O)S(=O)(=O)c2cc(OC)ccc2OC)cc1	-2.6%	6.0	0.0%	19.2%
35	Cc1nn(Cc2cccc(C(=O)NC34CC5CC(CC(C5)C3)C4)c2)c(C)c1Br	-0.5%	-9.2	14.3%	-10.7%
36	Cc1nc(N2CCN(S(=O)(=O)c3ccccc3)CC2)c2c3c(sc2n1)CC(C)CC3 (stereo not drawn)	0.4%	11.6	-1.3%	6.0%
37	Cn1c(=O)c2c(nc(Sc3ncccn3)n2Cc2ccc(Cl)cc2)n(C)c1=O	-1.5%	-1.3	9.4%	-16.1%
38	O=C(CO/N=C\c1ccccc1)Nc1ccccc1C(=O)N1CCOCC1	4.2%	-8.3	7.4%	-13.4%
39	CC[n+]1c(/C=C/C=C/N(C(C)=O)c2ccccc2)sc2cc(OC)ccc21	?	-3.6	20.8%	?
40	COc1ccc(NC(=S)N2CCN(C(c3ccccc3)c3ccccc3)CC2)cc1OC	-1.2%	-2.2	-3.9%	-8.5%
41	Cc1cccc(NC2=NC(=S)N(c3cccc(C(=O)O)c3)C23CCCCC3)c1	4.9%	7.9	-7.4%	4.4%
42	COc1cc(=O)n(C)c2c(OCC(O)C(C)(C)O)cccc12 (stereo not drawn)	-4.6%	0.0&0.9	.	19.3%
43	Cc1ccc(NC2=C(N3CCOCC3)C(=O)c3ccccc3C2=O)cc1	3.1%	2.8	-33.6%	-7.5%
44	Cc1cc(-c2ccc(/C=N/n3cnnc3)o2)c(C)c([N+](=O)[O-])c1	?	.	-20.1%	13.9%
45	Cc1cccc(N2CCN(C(=O)c3ccc4nc(N5CCCCC5)sc4c3)CC2)c1C	-1.1%	-10.7	-12.9%	-5.6%
46	S=c1[nH]nc(-c2cccc(Cl)c2)n1Cc1ccccc1	-0.1%	4.2	1.6%	-0.6%
47	Cc1ccc(-c2cc(-c3ccccc3)[nH]c(=S)c2C#N)cc1	-3.9%	0.7	-10.0%	-4.9%
48	CCOc1cc(N2CCOCC2)c(OCC)cc1NC(=O)c1c(C)noc1C	-2.3%	.	.	-1.5%
49	O=C(O)c1ccc(N=NN2CCCCC2)cc1	3.4%	-4.3	-41.2%	?
50	COc1ccc(CC(=O)OCC(=O)NCc2ccccc2Cl)cc1	-1.0%	-0.2	-0.8%	1.4%
51	COc1cc(C=O)cc(OC)c1OS(=O)(=O)c1ccc(NC(C)=O)cc1	2.7%	-3.3	-4.4%	17.3%
52	CC(C)CC(NS(=O)(=O)c1ccc2c(c1)oc(=O)n2C)C(=O)NCc1cccnc1 (stereo not drawn)	1.2%	-2.6	2.3%	17.1%
53	CCOC(=O)CSc1nnc(-c2cccnc2)n1C	-2.6%	-2.0	-1.3%	8.3%
54	Cc1ccc(/C=N/n2c(COc3ccccc3)n[nH]c2=S)o1	0.1%	2.9	-10.2%	-24.8%
55	Nc1ccc(C(=O)OCC(=O)c2cccc([N+](=O)[O-])c2)cc1	1.9%	8.0	-12.4%	8.0%
56	COc1ccc(-n2c(-c3ccco3)nc3c(cnn3-c3ccccc3C)c2=O)cc1	0.1%	-2.8	0.2%&-19.2%	-0.4%

Remaining list, next part.
no.	SMILES	Rango-impB inh	GLA inh pH 4.5	miR-21 reporter	Rango dissoc inh
57	CSc1nnc(-c2cc3c(-c4ccccc4)nn(C)c3s2)n1C	-5.7%	-2.2	1.1%	1.3%
58	CCCOc1ccc(S(=O)(=O)N2CCOCC2)cc1[N+](=O)[O-]	4.3%	2.0	-2.1%	-2.3%
59	Clc1cccc(OCc2nc(-c3ccncc3)n[nH]2)c1	-0.4%	9.2	1.8%	18.2%
60	Cc1ccc(Nc2nc(CSc3nnc(-c4ccccc4)n3C)cs2)cc1	-3.1%	-0.4	-22.9%	-1.2%
61	Cn1c(=O)n(CCOc2ccc([N+](=O)[O-])cc2)c2ccccc21	-0.5%	-5.6	-34.2%	1.6%
62	COc1ccccc1C(=O)NC(CCSC)C(=O)OCC(=O)c1ccc[nH]1 (stereo not drawn)	-0.1%	7.2	-10.8%	-6.2%
63	CC(=O)N1CCN(c2nc(-c3ccco3)c3c(c2C#N)CC(C)(C)SC3)CC1	?	0.7	1.6%	?
64	COc1ccccc1N(C(=O)c1snc(C(N)=O)c1N)C(C(=O)NC1CCCC1)c1ccc2ncccc2c1 (stereo not drawn)	-5.1%	.	-13.0%	-2.6%
65	Cc1sc2ncnc(N[C@@H](Cc3c[nH]c4ccccc34)C(=O)O)c2c1C	8.2%	-6.9	-3.4%	1.0%
66	COC(=O)c1ccc(N=Nc2ccccc2)cc1	2.0%	-1.6	-34.5%	5.6%
67	COc1ccccc1-c1nc(=S)c(C(C)=O)c(C)[nH]1	1.8%	7.2	-15.7%	-15.4%
68	CC(O)C(=O)N/N=C/c1cccc2ccccc12 (stereo not drawn)	-2.4%	-9.8	-17.6%	0.4%
69	CCOC(=O)N1CCN(C(=O)Cc2ccccc2[N+](=O)[O-])CC1	0.1%	.	0.0%	-0.3%
70	Nc1nonc1-n1nnc(C(=O)N/N=C/c2ccccc2Cl)c1CN1CCOCC1	-3.2%	.	-1.7%	-1.9%
71	Cc1cc(-c2csc(NC(=O)c3ccc(=O)[nH]c3)n2)c(C)n1Cc1ccco1	-0.3%	-6.4	2.9%	-4.3%
72	COc1cccc(C2C(C(=O)c3cc4ccccc4o3)=C(O)C(=O)N2c2cc(C)on2)c1OC (stereo not drawn)	?	3.0	-11.2%	?
73	OCC1(Cc2ccccc2C(F)(F)F)CCN(Cc2ccccc2)CC1	1.1%	-8.5	-5.7%	0.9%
74	CCN(CC)C(=O)c1[nH]cnc1C(=O)NCCCCCNC(=O)OC(C)(C)C	-0.7%	.	.	2.6%
75	COCCn1c(SCC(=O)N2CCCC2)nc2c([nH]c3ccccc32)c1=O	2.0%	.	2.0%	-2.7%
76	Cc1cc(C(=O)COc2ccccc2[N+](=O)[O-])c(C)n1C1CC1	5.2%	5.4	-51.9%	-15.1%
77	CC(C)CSc1nnc2[nH]c(=O)cc(N)n12	2.9%	4.3	-9.1%	-1.2%
78	Cc1ccccc1Nc1ccc([N+](=O)[O-])cn1	4.9%	.	-5.0%	22.1%
79	O=C(O)/C=C/c1cn(Cc2ccccc2)nc1-c1ccccc1	7.6%	1.2	-0.9%	-8.0%
80	O=C(CSc1nnc(COc2ccccc2)n1-c1ccccc1)c1cccs1	-1.9%	-1.3	-24.2%	-7.7%
81	O=C(Nc1ccc(Br)cn1)c1ccc2ccccc2c1	1.2%	.	-35.4%	-7.9%
82	Cc1ccc2[nH]c3c(c2c1)CN(C(=O)CN1CCN(C(=O)c2ccco2)CC1)CC3	.	-0.6	-4.0%	.
83	c1ccc2c(c1)OCC(c1nnc3n1-c1ccccc1SC3)O2 (stereo not drawn)	5.9%	7.0	-21.9%	11.7%
84	COC(=O)C1=C(C)N(CC(C)C)C(=O)C1	?	4.8	0.1%	35.5%
85	O=C(O)/C(=C\c1ccc(-c2ccccc2[N+](=O)[O-])o1)c1ccccc1	0.2%	.	-28.0%	-8.8%
86	CN(C)/C=C/C(=O)c1ccc(Cl)c([N+](=O)[O-])c1	-1.8%	-4.7	0.7%	1.0%
87	O=C(N1CCOCC1)N1CCOCC1	-5.9%	-0.4	-0.7%	35.5%
88	COc1cnc(-c2cccc(C(F)(F)F)c2)nc1OC	-0.8%	4.7	-1.3%	0.1%
89	CCCCCOC(=O)c1ccc(N2C(=O)C3C4C=CC(C4)C3C2=O)cc1 (stereo not drawn)	6.3%	-3.8	-0.3%	9.1%

Compound activity: PubChem BioAssay, National Center for Advancing Translational Sciences (NCATS)
